# Bioassay records: PubChem BioAssay, Broad Institute
# MLL AF4-AF9 inh = inhibitors of AF4 peptide binding to AF9, primary screen, biochemical, AlphaScreen, biotin-AF4 peptide, FLAG-AF9, single point; inhibition, % at 10 µM; 0.47% of 350,000 active; AID 651704, 2012;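 active means every replicate reaching a set inhibition limit, whatever the replicate mean, cut at about 25% in these data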;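 further: 0% = plate neutral control median and 100% = total signal loss; the record names both 10 and 1 µM as test concentration; the first replicate is given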
# Target sequence (P42568 whole entry, looked up): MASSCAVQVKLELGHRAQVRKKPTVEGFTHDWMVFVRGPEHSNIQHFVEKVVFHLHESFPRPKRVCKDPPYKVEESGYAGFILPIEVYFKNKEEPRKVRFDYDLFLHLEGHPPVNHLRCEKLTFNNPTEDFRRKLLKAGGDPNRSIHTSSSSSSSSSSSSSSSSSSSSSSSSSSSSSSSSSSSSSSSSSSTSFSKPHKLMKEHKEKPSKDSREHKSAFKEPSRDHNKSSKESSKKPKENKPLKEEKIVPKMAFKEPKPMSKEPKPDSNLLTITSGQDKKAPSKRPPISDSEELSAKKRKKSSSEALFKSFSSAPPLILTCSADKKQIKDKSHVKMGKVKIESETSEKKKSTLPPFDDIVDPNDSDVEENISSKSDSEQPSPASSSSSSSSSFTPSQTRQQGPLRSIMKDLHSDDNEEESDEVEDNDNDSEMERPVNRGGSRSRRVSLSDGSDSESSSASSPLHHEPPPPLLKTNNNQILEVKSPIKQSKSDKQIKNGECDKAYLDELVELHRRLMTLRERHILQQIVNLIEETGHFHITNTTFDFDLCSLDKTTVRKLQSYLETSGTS
# Active calls of the source: *. The list is partial, so the mix of outcomes need not match the whole.
SMILES,MLL AF4-AF9 inh
C[C@H]1CN([C@@H](C)CO)C(=O)c2cc(C#Cc3ccccc3F)cnc2O[C@H]1CN(C)C(=O)c1ccc2c(c1)OCO2,1.6
CO[C@@H]1CN(C)C(=O)c2cc(NS(=O)(=O)c3ccccc3)ccc2OC[C@H](C)N(Cc2ccccn2)C[C@H]1C,0.1
COCCNC(=O)C[C@H]1C[C@H]2c3cc(NS(=O)(=O)c4ccccc4)ccc3O[C@H]2[C@H](CO)O1,0.0
COc1ccc(Cl)cc1-c1cc(C(=O)NCc2cccc(Cl)c2)[nH]n1,-3.4
Cc1noc(C)c1S(=O)(=O)N(C)C[C@@H]1OCCCC[C@@H](C)Oc2ccc(NC(=O)c3ccccc3)cc2C(=O)N([C@H](C)CO)C[C@@H]1C,-1.9
COc1ccccc1-c1ccc2n(c1=O)C[C@@H]1[C@@H](CO)[C@H](C(=O)Nc3nccs3)N(C)[C@H]21,-2.3
CCCNC(=O)C[C@@H]1C[C@H]2c3cc(NS(=O)(=O)c4cccc(OC)c4)ccc3O[C@H]2[C@@H](CO)O1,-5.1
O=C(C[C@@H]1CC[C@H]2[C@@H](COC[C@H](O)CN2CC2CC2)O1)NCc1ccc(Cl)cc1,-0.8
CCCN1[C@@H]2c3ccc(-c4ccc(F)cc4)c(=O)n3C[C@H]1[C@H](CO)[C@H]2C(=O)NCC1CC1,-1.5
Cc1ccc(OCc2cc(C(=O)N3CCCC(C)C3)no2)cn1 (stereo not given),-1.1
CCOC(=O)C1(C)CCCN1C(=O)c1ccc(OC)c(OC)c1 (stereo not given),2.5
O=C(C[C@H]1CC[C@@H]2[C@H](COC[C@@H](O)CN2S(=O)(=O)c2ccc(Cl)cc2)O1)NCc1ccc(Cl)c(Cl)c1,5.2

# Molecules above containing sulfur:
SMILES,MLL AF4-AF9 inh
CO[C@@H]1CN(C)C(=O)c2cc(NS(=O)(=O)c3ccccc3)ccc2OC[C@H](C)N(Cc2ccccn2)C[C@H]1C,0.1
COCCNC(=O)C[C@H]1C[C@H]2c3cc(NS(=O)(=O)c4ccccc4)ccc3O[C@H]2[C@H](CO)O1,0.0
Cc1noc(C)c1S(=O)(=O)N(C)C[C@@H]1OCCCC[C@@H](C)Oc2ccc(NC(=O)c3ccccc3)cc2C(=O)N([C@H](C)CO)C[C@@H]1C,-1.9
COc1ccccc1-c1ccc2n(c1=O)C[C@@H]1[C@@H](CO)[C@H](C(=O)Nc3nccs3)N(C)[C@H]21,-2.3
CCCNC(=O)C[C@@H]1C[C@H]2c3cc(NS(=O)(=O)c4cccc(OC)c4)ccc3O[C@H]2[C@@H](CO)O1,-5.1
O=C(C[C@H]1CC[C@@H]2[C@H](COC[C@@H](O)CN2S(=O)(=O)c2ccc(Cl)cc2)O1)NCc1ccc(Cl)c(Cl)c1,5.2

# The list goes on:
SMILES,MLL AF4-AF9 inh
c1ccc2c(c1)OCc1nccn1-2,9.6
COc1ccc(S(=O)(=O)Nc2ccc3c(c2)C(=O)N([C@H](C)CO)C[C@H](C)[C@H](CN(C)Cc2ccc4c(c2)OCO4)OCCCC[C@H](C)O3)cc1,4.2
CCCN(C)C[C@H]1OCCCC[C@H](C)Oc2ccc(N(C)C)cc2C(=O)N([C@H](C)CO)C[C@H]1C,14
C[C@H]1CN([C@@H](C)CO)C(=O)Cc2cc(NS(=O)(=O)c3ccc(Cl)cc3)ccc2O[C@H]1CN(C)Cc1ccc(C(F)(F)F)cc1,0.4
COC(=O)[C@]12C[C@H](CC(=O)NCCC(C)C)C(=O)N(Cc3ccc4c(c3)OCO4)C1=C[C@H](C(C)(C)C)O[C@@H]2C,-8.5
CCCNC(=O)C[C@H]1CC[C@@H]2[C@@H](COc3ccc(NC(=O)NCC)cc3C(=O)N2C)O1,-2.2
C[C@H]1CN([C@@H](C)CO)C(=O)c2cc(NS(C)(=O)=O)ccc2O[C@H]1CN(C)Cc1ccc(C(F)(F)F)cc1,-13
N#C[C@H]1[C@H](c2ccc(C#CC3CCCC3)cc2)[C@@H](CO)N1C(=O)Nc1ccc(F)cc1,2.7
Cc1noc(C)c1NC(=O)N(C)C[C@@H]1Oc2ccc(NC(=O)Nc3ccc4c(c3)OCO4)cc2C(=O)N([C@@H](C)CO)C[C@@H]1C,0.8
c1ccc(COc2ncnc3c2ncn3CCCN2CCN(c3ccccn3)CC2)cc1,0.3
O=C(NCCCN1CCOCC1)[C@H]1N[C@H]2c3ccc(C4=CCCC4)c(=O)n3C[C@H]2[C@@H]1CO,2.3
COCC#Cc1ccc(CC[C@H]2O[C@H]3CC[C@H](CO)O[C@H]3C[C@@H]2n2cc(C3(O)CCCC3)nn2)cc1,-2.1
O=C(C[C@@H]1C=C[C@@H](NS(=O)(=O)c2ccccc2)[C@@H](CO)O1)NCc1ccc(Cl)c(Cl)c1,-0.3
C[C@@H]1CN([C@@H](C)CO)C(=O)c2ccccc2-c2ccccc2CO[C@H]1CN(C)C(=O)NC1CCCCC1,-1.0
O=C1NC(Cc2ccc(O)cc2)c2nc3cc(F)c(F)cc3c(=O)n2-c2cc3ccccc3cc21 (stereo not given),1.0
C[C@@H]1CN([C@@H](C)CO)C(=O)c2cc(NS(=O)(=O)c3ccc(Cl)cc3)ccc2O[C@@H](C)CCCCO[C@H]1CN(C)S(=O)(=O)c1cn(C)cn1,-18
C[C@@H]1CN([C@H](C)CO)C(=O)c2cccc(NS(=O)(=O)c3ccc(Cl)cc3)c2O[C@@H]1CN(C)S(=O)(=O)c1ccc(Cl)cc1,-0.1
C[C@H](CO)N1C[C@H](C)[C@@H](CN(C)S(=O)(=O)c2ccc(F)cc2)Oc2ccc(NC(=O)CCCN(C)C)cc2C1=O,-2.7
OC(c1ccc(Cl)cc1)c1ncc(-c2ccc(Oc3ccccc3)cc2)[nH]1 (stereo not given),5.0
COc1ccc(S(=O)(=O)N(C)C[C@@H]2OCCCC[C@@H](C)Oc3ccc(NC(=O)Nc4ccc(F)cc4)cc3C(=O)N([C@H](C)CO)C[C@@H]2C)cc1,-1.1
O=C(C[C@@H]1C[C@H]2c3cc(NC(=O)CC4CC4)ccc3O[C@H]2[C@H](CO)O1)NCCc1ccccc1,-3.6
COC(=O)[C@H]1[C@H](CO)[C@H]2Cn3c(ccc(-c4cccc(F)c4)c3=O)[C@H]2N1Cc1ccccn1,-1.3
CCCNC(=O)Nc1ccc2c(c1)C(=O)N(C)C[C@@H](OC)[C@@H](C)CN(CCC)[C@@H](C)CO2,1.0
O=C(C[C@H]1CC[C@H](NC(=O)C2CCC2)[C@@H](CO)O1)NCc1ccccc1Cl,-1.0
COc1cc(OC)cc(-c2c(Sc3ccccc3)c3cc(-c4ccc(OC)nc4)ccc3n2C)c1,-6.5
CC(C)CC#Cc1ccc2c(c1)O[C@@H](CN(C)C)[C@@H](C)CN([C@@H](C)CO)S2(=O)=O,3.1
NC(Cc1ccc(F)cc1)c1csc(Nc2cc(Oc3ccccc3)ncn2)n1 (stereo not given),13
O=C(C[C@@H]1C[C@@H]2c3cc(NC(=O)NC4CCCC4)ccc3O[C@@H]2[C@H](CO)O1)NCc1cccnc1,2.0
CO[C@@H](CN(C)C(=O)c1ccc2c(c1)OCO2)[C@H](C)CN([C@@H](C)CO)S(=O)(=O)c1ccc(F)cc1,0.0
CCCC#Cc1cnc2c(c1)C(=O)N([C@H](C)CO)C[C@@H](C)[C@H](CN(C)C(=O)Nc1ccc(OC)cc1)O2,1.4
CC(C)NC(=O)N(C)C[C@H]1OCCCC[C@H](C)Oc2ccc(NC(=O)Nc3ccc4c(c3)OCO4)cc2C(=O)N([C@@H](C)CO)C[C@H]1C,2.3
C[C@H](CO)N1C[C@H](C)[C@H](CN(C)C)Oc2cc(Br)ccc2S1(=O)=O,-4.6
C[C@@H]1CN([C@@H](C)CO)C(=O)Cc2cc(NC(=O)CCC(F)(F)F)ccc2O[C@H]1CN(C)CC1CCCCC1,-8.6
O=C(NCCCN1CCOCC1)c1c(-c2ccccc2)oc2c1C(OCCCCCO)CCC2 (stereo not given),2.9
COc1ccc(-c2ccc([C@H]3[C@@H](CO)N4CCCCN(C(=O)NC(C)C)C[C@H]34)cc2)cc1,3.5
C[C@@H]1CN([C@@H](C)CO)C(=O)c2cc(/C=C/c3ccccc3)cnc2O[C@@H]1CN(C)C(=O)c1cccnc1,-1.6

# Some of these compounds in order of count of non-hydrogen atoms, rising.
SMILES,MLL AF4-AF9 inh
COc1ccc(Cl)cc1-c1cc(C(=O)NCc2cccc(Cl)c2)[nH]n1,-3.4
COc1ccccc1-c1ccc2n(c1=O)C[C@@H]1[C@@H](CO)[C@H](C(=O)Nc3nccs3)N(C)[C@H]21,-2.3
CCCN(C)C[C@H]1OCCCC[C@H](C)Oc2ccc(N(C)C)cc2C(=O)N([C@H](C)CO)C[C@H]1C,14

# Next part.
SMILES,MLL AF4-AF9 inh
C[C@@H]1CN([C@@H](C)CO)C(=O)Cc2cc(NS(=O)(=O)c3ccc(Cl)cc3)ccc2O[C@@H]1CN(C)S(C)(=O)=O,-2.0
CCCNC(=O)N1CCC2(CC1)CN(C(=O)CCC)[C@H](CO)c1[nH]c3cc(OC)ccc3c12,-2.8
Cc1noc(C)c1S(=O)(=O)Nc1ccc2c(c1)CC(=O)N([C@@H](C)CO)C[C@H](C)[C@@H](CN(C)Cc1ccc(C(=O)Nc3ccccc3N)cc1)O2,-0.5
CC(C)NC(=O)Nc1ccc2c(c1)C(=O)N([C@H](C)CO)C[C@H](C)[C@H](CN(C)C(=O)NC(C)C)OCCCC[C@@H](C)O2,-1.6
COc1ccccc1NC(=O)N(C)C[C@@H]1Oc2ncc(C#CCC(C)C)cc2C(=O)N([C@@H](C)CO)C[C@@H]1C,-1.7
C[C@@H]1CN([C@H](C)CO)C(=O)Cc2cc(NC(=O)Nc3ccc(C(F)(F)F)cc3)ccc2O[C@H]1CN(C)S(=O)(=O)c1ccc(Cl)cc1,-5.1
CNC[C@H]1Oc2ncc(-c3cncnc3)cc2C(=O)N([C@H](C)CO)C[C@@H]1C,-3.9
CCCNC(=O)N1[C@H](CO)[C@H](c2ccc(C3=CCCCC3)cc2)[C@@H]1CNC(C)C,6.3
Fc1cccc(Cc2c(-c3cccc(Cl)c3)nc3c4ccccc4ccn23)c1,0.2
C[C@@H]1CCCCO[C@H](CN(C)C(=O)Nc2ccccc2)[C@H](C)CN([C@@H](C)CO)C(=O)c2cc(NC(=O)CCCN(C)C)ccc2O1,2.7
CCCNC(=O)C1(C)CCCN(Cc2csc(-c3ccccc3)n2)C1 (stereo not given),1.2
C[C@H]1CCCCO[C@H](CN(C)C(=O)C2CCCCC2)[C@@H](C)CN([C@@H](C)CO)C(=O)c2cc(NC(=O)Nc3cccc4ccccc34)ccc2O1,2.1

# Next section (two carried over from the part before).
SMILES,MLL AF4-AF9 inh
CCCNC(=O)C1(C)CCCN(Cc2csc(-c3ccccc3)n2)C1 (stereo not given),1.2
C[C@H]1CCCCO[C@H](CN(C)C(=O)C2CCCCC2)[C@@H](C)CN([C@@H](C)CO)C(=O)c2cc(NC(=O)Nc3cccc4ccccc34)ccc2O1,2.1
CCC(CC)C(=O)N(C)c1c(C)nc2c(OCc3cccc(Cl)c3)cccn12,0.2
O=C(C1CCC1)N1CC(=O)N2[C@H](CO)[C@H](c3ccc(Br)cc3)[C@H]2C1,-1.9
O=C(C[C@H]1C=C[C@@H](NC(=O)c2ccc(F)cc2)[C@@H](CO)O1)NCc1ccncn1,-7.2
O=C(NC[C@@H]1CC[C@H]2[C@H](CN2Cc2ccccc2F)O1)C1CC1,-3.0
C[C@H](CO)N1C[C@H](C)[C@@H](CN(C)S(=O)(=O)c2ccc(F)cc2)Oc2ccc(NC(=O)Nc3cccc4ccccc34)cc2C1=O,3.9
CCCNC(=O)N(C)C[C@H]1Oc2ncc(-c3ccc(OC)cc3)cc2C(=O)N([C@H](C)CO)C[C@H]1C,0.1
CO[C@@H]1CN(C)C(=O)c2cc(NC(=O)C3CCCC3)ccc2OC[C@@H](C)NC[C@@H]1C,-2.9
CCCCn1nnnc1C(CC)N1CCN(C/C=C/c2ccccc2)CC1 (stereo not given),5.1
CC(C)C#Cc1ccc2c(c1)O[C@@H](CN(C)CC1CCCC1)[C@H](C)CN([C@@H](C)CO)S2(=O)=O,3.8
O=C(C[C@H]1C=C[C@H](NC(=O)C2CCC2)[C@H](CO)O1)NCC1CC1,-1.9
CCN(C(=O)CN(C1=NC2CS(=O)(=O)CC2S1)c1ccc(OC)cc1)c1cccc(C)c1 (stereo not given),-1.8
O=C(C[C@H]1CC[C@H](NC(=O)C2CCOCC2)[C@@H](CO)O1)NCc1ccncc1,-0.4
O=C(NCC1CC1)[C@H]1[C@H](CO)[C@H]2Cn3c(ccc(-c4ccncc4)c3=O)[C@H]2N1Cc1cocn1,-1.9
C[C@@H]1CN([C@H](C)CO)C(=O)c2cc(NC(=O)C3CC3)ccc2O[C@@H]1CN(C)C(=O)Nc1ccccc1,-1.4
COc1ccc([Si](C)(C)[C@@H]2[C@@H](CCn3cc(CCO)nn3)O[C@]3(C(=O)N(Cc4ccc(N5CCC5=O)cc4)c4ccccc43)[C@H]2C)cc1,1.3
C[C@@H]1CN([C@H](C)CO)C(=O)Cc2cc(NC(=O)Nc3ccc(C(F)(F)F)cc3)ccc2O[C@H]1CN(C)S(C)(=O)=O,2.0
O=C(NCCC(F)(F)F)C1Cc2c(-c3cccc(F)c3)ccnc2O1 (stereo not given),-4.3
C[C@H](CO)N1C[C@H](C)[C@H](CN(C)S(=O)(=O)c2ccccc2)Oc2ncc(C#Cc3cccc(F)c3)cc2C1=O,-5.6
COc1ccc([C@@H]2C[C@H]3[C@@H](CN2S(=O)(=O)c2ccccc2)C(=O)C[C@@H](c2ccccc2)N3S(=O)(=O)c2ccc(C)cc2)cc1,-6.3
CCNC(=O)C[C@@H]1CC[C@@H]2[C@H](COc3ccc(NC(=O)NC(C)C)cc3C(=O)N2C)O1,1.4
CCCNC(=O)N1CC[C@@H]2[C@H]1c1cc(-c3ccccc3)ccc1N(C)[C@H]2CO,6.7
COc1ccccc1S(=O)(=O)N(C)C[C@@H]1Oc2ncc(-c3ccc(C)cc3)cc2C(=O)N([C@@H](C)CO)C[C@@H]1C,-3.4
CO[C@H]1CN(C)C(=O)c2cc(NC(=O)NC3CCCC3)ccc2OC[C@H](C)N(CC2CC2)C[C@@H]1C,-7.4
